High-throughput results from PubChem.
HIV TAR-Tat – TAR RNA-Tat peptide displacers, HIV-1, primary screen, biochemical, FRET, FAM/TAMRA-labeled Tat. HIV-1 TAR RNA, Tat peptide displacement FRET; stronger effect = higher value. 100,000 tested, 0.6% active. z-score (no concentration beside the values). AID 1259389, 2018;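 further: score is relative to mean and SD of negative controls; some compounds called inactive have numbers as strong as hits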
CDC25B-CDK2 inh – primary biochemical HTRF screen for blockers of M-phase inducer phosphatase 2 binding to CDK2/cyclin A | z-score (no concentration beside the values) | P30305+P24941 | 94,000 tested, 0.72% active | HTRF CDC25B-CDK2/CyclinA binding, anti-His/anti-Flag; stronger effect = higher value | AID 1259370, 2018;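 further: score is relative to mean and SD of negative controls; strong numbers were not always called active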
* hit, by the source's call; · = no result given.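 How the source made its calls: active means z-score from 3 up in half or more of its runs; inactive means the rest.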 Compounds as they come. About 0.97% of those tested had a hit in this group.

Values run as follows: HIV TAR-Tat | CDC25B-CDK2 inh
> Cc1ccc2nc(-c3c(-c4ccccc4)c4cc(Cl)ccc4[nH]c3=O)cc(-c3ccccc3)c2c1
    · | -5.23
> O=C(OCc1ccco1)c1cnn2c(C(F)(F)F)cc(-c3ccccc3)nc12
    0.72 | -0.93
> CCCC(=O)Nc1cc(C(C)(C)C)on1
    0.83 | 0.5
> CC(C)CCNc1ncnc2c1sc1nc(N3CCOCC3)c3c(c12)CC(C)(C)OC3
    · | -0.65
> O=C(NCCCN1CCOCC1)c1c(O)c2cccc3c2n(c1=O)CCC3
    0.18 | ·
> CC1CCC(NC(=O)c2cc(C3CC3)[nH]n2)CC1 (stereo not drawn)
    0.45 | ·
> CC1(C)CC(=O)C2=C(C1)Nc1nc(SCc3ccccc3)nn1C2c1ccc(F)cc1 (stereo not drawn)
    -0.87 | -1.26
> Cc1ccc(-c2nnc(N3CCOCC3)c3ccccc23)cc1S(=O)(=O)N1CCOCC1
    -0.81 | -1.03
> COc1ccc(SCCC(=O)NNS(=O)(=O)c2sc3ccc(Cl)cc3c2C)cc1
    · | -1.51
> CCOC(=O)C(N)CSC1CC(=O)N(c2ccc(OCC)cc2)C1=O (stereo not drawn)
    -0.27 | -2.4
> CCOC(=O)CNC(=O)CSc1nc(-c2ccco2)nc2c1c(=O)n(C)c(=O)n2C
    · | -1.65
> Cc1ccc(S(=O)(=O)NCCc2cn3c(C)csc3n2)cc1
    -0.04 | ·
> Fc1ccc(-c2noc3ncnc(NCCC4=CCCCC4)c23)cc1
    -0.78 | ·
> CC(C)N(Cc1ccccc1)S(=O)(=O)c1ccc(N2CCCCS2(=O)=O)cc1
    0.05 | ·
> CCC(C(=O)Nc1cc(F)ccc1F)S(=O)(=O)c1ccc2c(c1)S(=O)(=O)N=CN2 (stereo not drawn)
    1.77 | 0.5
> COC(=O)C(C)Sc1nnc(CSc2nc(C)cc(C)n2)n1-c1ccc(OC)cc1 (stereo not drawn)
    -0.8 | -2.21
> Cc1c(C(=O)CN2CCN(C(=O)Nc3ccccc3Br)CC2)c2ccccc2n1C
    -2.8 | ·
> O=c1[nH]ccn(-c2ccc(O)cc2)c1=O
    -0.32 | -2.44
> COCCN1C(=O)c2[nH]nc(-c3ccccc3O)c2C1c1ccc(OCc2ccccc2)cc1 (stereo not drawn)
    -0.91 | 0.82
> Cc1cc(=O)[nH]c(Nc2nc3ccccc3[nH]2)n1
    · | 0.02
> COCCNC(=O)Cc1noc2ccccc12
    1.27 | -0.32
> COc1ccc(OCCN2CCCn3c2nc2ccccc2c3=O)cc1
    0.16 | 0.03
> Cc1cccn2c(=O)c3cc(C#N)c(=O)n(-c4nnc(SCc5ccccc5F)s4)c3nc12
    1.5 | -0.66
> CC(=O)N1N=C(c2ccc(OC(=O)c3ccc(C(C)(C)C)cc3)cc2)OC1c1ccc(C)nc1 (stereo not drawn)
    0.39 | ·
> COC(=O)c1c(SCC(=O)Nc2cc(OC)cc(OC)c2)[nH]c2ccccc2c1=O
    0.22 | ·
> CCOC(=O)c1cnc2cc(-c3ccccc3)nn2c1C
    · | -1.31
> O=C(O)c1ccc(F)c(S(=O)(=O)N2CCCCC2)c1
    1.17 | ·
> CCOc1ccc(C2CC(c3cccs3)Nc3ncnn32)cc1OC (stereo not drawn)
    · | -1.54
> Cc1ccc(Nc2nc(NCCCO)nc3c2cnn3C)c(C)c1
    1.72 | ·
> COc1cccc(NC(=O)C2=Cc3sc4c(c3CS2)CCCC4)c1
    -6.28 | ·
> O=C(Nc1ccc(Cl)cc1)C1CCCN1S(=O)(=O)c1cccc2cccnc12 (stereo not drawn)
    -0.73 | 0.94
> Cc1onc(-c2ccccc2)c1NC(=O)N1CCN(C2c3ccccc3-c3ccccc32)CC1
    · | -1.68
> COc1ccc(S(=O)(=O)NCC(c2ccc(N(C)C)cc2)N2CCc3ccccc32)cc1OC (stereo not drawn)
    -0.08 | ·
> Cc1ccc(-c2cn3ccccc3n2)cc1NS(=O)(=O)c1ccc(F)cc1
    0.36 | -1.11
> O=C(NC1CC1)c1nc(-n2cnnc2)ccc1Br
    1.55 | ·
> Cc1ccc(NC(=S)NN=C2CCCCCC2)c(C)c1
    · | -2.82
> COC(=O)CC1SC(=O)NC1=O (stereo not drawn)
    -0.09 | -0.45
> CCSc1nn(C)c2nc3c(c(=O)n12)C(C)(C)Cc1ccccc1-3
    1.43 | -0.73
> Cc1ccc2onc(CNC(=O)NCC3CCCO3)c2c1 (stereo not drawn)
    -0.32 | ·
> COc1cc(-c2nc3ncccn3c2Nc2ccc(C)c(C)c2)ccc1O
    1.09 | -2.59
> COc1ccc(F)cc1S(=O)(=O)Nc1cccc(-c2ccc(N3CCCC3)nn2)c1
    1.99 | ·
> CC1CC(C)CN(C(=O)c2ccc(N3CCCC3=O)cc2)C1 (stereo not drawn)
    · | -1.72
> CSc1cccc(NC(=O)C2CCCN(S(=O)(=O)c3cn(C)cn3)C2)c1 (stereo not drawn)
    1 | ·
> CCc1cc2c(=O)c(-c3nc(C)cs3)c(C)oc2cc1O
    -1.56 | -2.17
> O=C(O)c1ccccc1N1C(=O)C2C3c4ccccc4C(c4ccccc43)C2C1=O (stereo not drawn)
    0.25 | -1.22
> O=C(CSC1=NS(=O)(=O)c2ccccc2N1)NCCC1=CCCCC1
    0.26 | ·
> Cc1ccc2nc(Nc3ccc(C(C)C)cc3)c3nnnn3c2c1
    -0.59 | ·
> CN1c2ccccc2-c2nc(SCC(=O)Nc3ccccc3)ncc2S1(=O)=O
    0.29 | ·
> COc1ccc(SCc2cc(=O)n3oc(C)cc3n2)cc1
    0.41 | 0.98
> O=S1(=O)C[C@H](N2CCN(c3ccccc3)CC2)[C@@H](S(=O)(=O)c2ccc(Cl)cc2)C1
    1.81 | -2.82

The list continues:
Values run as follows: HIV TAR-Tat | CDC25B-CDK2 inh
> COc1ccc(Nc2nnc(Cc3cccnc3)c3ccccc23)cc1OC
    · | -3.44
> CCOC(=O)c1c(NC(=O)c2ccco2)sc(CC)c1C
    2.25 | -2.57
> Cc1ccc(N2C(=O)CC(Nc3ccc(C)c(C)c3)C2=O)c(C)c1 (stereo not drawn)
    -0.49 | -0.56
> O=C(O)C1CCN(c2ccc(S(=O)(=O)N3CCCC3)cc2)CC1
    0.25 | -0.72
> O=C(NCc1ccc2c(c1)OCO2)C1(c2cccs2)CCOCC1
    2.27 | ·
> CC1CC(C)CN(C(=O)CN2C(=O)CSc3ccc(S(=O)(=O)N4CCCC4)cc32)C1 (stereo not drawn)
    0.25 | ·
> O=C(Cc1cccs1)Nc1c2c(nn1-c1ccc(F)cc1)CSC2
    · | -1.27
> CN(CCOC(=O)c1ccco1)C(C)(C)C
    2.42 | -0.3
> CCOC(=O)c1ccccc1NC(=O)c1cc(Cl)ccc1Cl
    · | -1.32
> COC(=O)c1sccc1NC(=O)c1cc2ccc3cccnc3c2[nH]1
    0.3 | ·

Continued.
| mol | HIV TAR-Tat | CDC25B-CDK2 inh |
| --- | --- | --- |
| CN1C(=O)C2c3oc(-c4ccc(Cl)cc4)nc3C(=O)N(c3ccccc3)C2N(C)C1=O (stereo not drawn) | · | -0.85 |
| Brc1ccc2c(c1)[C@H]1OCC[C@H]1[C@@H](c1cccs1)N2 | · | -3.55 |
| CC1CCN(C(=O)c2cc3n(n2)C(C(F)(F)F)CC(c2ccc(Br)cc2)N3)CC1 (stereo not drawn) | 0.67 | 0.02 |
| Cc1nnc(NC(=O)CSC2=NN3CCCC(=O)N=C3S2)s1 | · | -2.24 |
| CC1CC(C)CN(C(=O)C2CCCN(c3nnc(-n4cccc4)s3)C2)C1 (stereo not drawn) | 1.27 | 0.88 |
| COC(=O)c1cc(OC)c(OC)cc1NC(=O)C1=Cc2cc(Cl)cc(OC)c2OC=C1 | 0.38 | 0.12 |
| CC(C)Cn1c(=O)c2ccccc2n2c(-c3cc(Cl)ccc3O)nnc12 | 2.26 | -0.96 |
| CC1CCCC(NC(=O)c2cc(S(=O)(=O)N3CCCC3)c[nH]2)C1C (stereo not drawn) | 1.18 | · |
| CCCN[C@H]1CS(=O)(=O)C[C@@H]1S(=O)(=O)c1ccc(Cl)cc1 | -1.39 | -1.27 |
| CSc1cccc(NS(=O)(=O)c2cn(C)c(C)n2)c1 | 1.85 | · |
| COc1ccc(NC(=O)CSc2nc(-c3cccs3)nc3cc(=O)[nH]n23)cc1 | 14.4* | · |
| COC(=O)c1sc(NC(=O)c2csnn2)nc1C | -0.08 | 0.45 |

Molecules from the list above that contain bromine (four):
| mol | HIV TAR-Tat | CDC25B-CDK2 inh |
| --- | --- | --- |
| Cc1c(C(=O)CN2CCN(C(=O)Nc3ccccc3Br)CC2)c2ccccc2n1C | -2.8 | · |
| O=C(NC1CC1)c1nc(-n2cnnc2)ccc1Br | 1.55 | · |
| Brc1ccc2c(c1)[C@H]1OCC[C@H]1[C@@H](c1cccs1)N2 | · | -3.55 |
| CC1CCN(C(=O)c2cc3n(n2)C(C(F)(F)F)CC(c2ccc(Br)cc2)N3)CC1 (stereo not drawn) | 0.67 | 0.02 |

Going on with the list:
| mol | HIV TAR-Tat | CDC25B-CDK2 inh |
| --- | --- | --- |
| CCOc1ccc(OCC)c(NS(=O)(=O)c2ccc3c(c2)CC(C)N3C(=O)C2CCC2)c1 (stereo not drawn) | -0.22 | · |
| Cc1ccc(NC(=O)c2ccccc2NC(=O)c2ccccc2)cc1 | · | -1.22 |
| CNc1oc(-c2ccc(COc3ccc(Cl)cc3)o2)nc1C#N | 2.75 | -0.98 |
| O=C(CSc1nn2cnnc2s1)N(C1CCCCC1)C1CCCCC1 | -0.37 | -0.26 |
| CCC1c2ccc(C)n2CCN1C(=O)Nc1cccc2c1CCCC2 (stereo not drawn) | -9.31 | 0.16 |
| Cc1c(C)c(C)c(C(=O)CC2(O)C(=O)Nc3ccccc32)c(C)c1C (stereo not drawn) | 0.89 | · |
| CCCCN1C(=O)/C(=C2\SC(N3CCCCC3)=NC2=O)c2ccccc21 | · | -0.24 |
| C=CCSc1nc2c(c(=O)n1C)C1(CCCC1)Cc1ccccc1-2 | -0.51 | -0.89 |
| CCCNC(=O)COCc1cc(-c2ccco2)on1 | 0.09 | · |
| COc1ccc(S(=O)(=O)NCCc2csc3nc(-c4cccs4)nn23)cc1 | 0.26 | · |
| Fc1ccc(C2CC(c3cccc(Br)c3)n3ncnc3N2)cc1 (stereo not drawn) | 2.13 | · |
| CC1CCCC(NC(=O)C2(C)Cn3c(cc4occc43)C(=O)N2Cc2ccc3c(c2)OCO3)C1C (stereo not drawn) | 6.96* | · |

Compounds shown so far that have a cyano group, in the order listed:
| mol | HIV TAR-Tat | CDC25B-CDK2 inh |
| --- | --- | --- |
| Cc1cccn2c(=O)c3cc(C#N)c(=O)n(-c4nnc(SCc5ccccc5F)s4)c3nc12 | 1.5 | -0.66 |
| CNc1oc(-c2ccc(COc3ccc(Cl)cc3)o2)nc1C#N | 2.75 | -0.98 |

(continued)
| mol | HIV TAR-Tat | CDC25B-CDK2 inh |
| --- | --- | --- |
| NC(=O)C1CCN(c2ncnc3onc(-c4ccc(F)cc4)c23)CC1 | -0.16 | · |
| Fc1ccc(-c2nc3ncccn3c2NCc2ccccc2)cc1F | -1.41 | · |
| CCn1cc2c(c1-c1ccc(Br)cc1)c(=O)n(C)c(=O)n2C | 2.08 | -1.98 |
| CCNc1cc(N2CCN(CCO)CC2)c2noc3c2c1C(=O)c1ccccc1-3 | 15.5* | 8.13* |
| O=C(Nc1cccc(Br)c1)C1CC(=O)N(c2cccc(-c3noc(C4CCC4)n3)c2)C1 (stereo not drawn) | 0.28 | · |
| Cc1nnc(-c2c[nH]c3ccccc23)o1 | 1.58 | -0.26 |
| CCOC(=O)C1=C2c3ccccc3CC(C)(C)N2C(=O)C1=O | -1.17 | · |
| CCS(=O)(=O)N1CCC2(CC1)OC(=O)C(C)=C2C(=O)NCC1CCCO1 (stereo not drawn) | 0.58 | · |
| C=CCSc1ncc(Cl)c(C(=O)Nc2ccc(OC)cc2OC)n1 | -1.29 | -0.35 |
| CSc1nc2c(c(=O)[nH]1)C(c1cccc(O)c1)CC(=O)N2 (stereo not drawn) | 2.81 | -2.35 |
| O=C1CC(c2cn(Cc3ccccc3)c3ccccc23)C(=O)N1c1ccc(O)cc1 (stereo not drawn) | 3.59 | -1.9 |
| O=C(O)c1ccc(CNc2c(N3CCCC3)c(=O)c2=O)cc1 | 1.21 | · |
| CCCCc1nn2c(=O)cc(COC(=O)c3cccc(F)c3)nc2s1 | -1.06 | · |
| Cc1c(NS(=O)(=O)c2ccc(Br)cc2)c(-n2cnnc2)nn1C | 2.06 | -2.66 |
| O=C(CSc1nccn1C1CCCCC1)Nc1ccccc1F | 1.51 | · |
| CCCC1=NN2C(=N)/C(=C/c3ccccc3OS(=O)(=O)c3ccc(C)cc3)C(=O)N=C2S1 | · | -1.79 |
| CCc1nn(CCCC(=O)NCCOC)c(=O)c2cc3occc3n12 | 2.86 | 0.27 |
| O=C(c1ccco1)N1CCN(c2ccc3cc(S(=O)(=O)N4CCCC4)ccc3n2)CC1 | 1.94 | · |
| CC1CN2C(=O)Cc3c(S(=O)(=O)N4CCCc5ccccc54)ccc(c32)S1 (stereo not drawn) | 0.31 | · |
| Cc1ccc(OCc2cc(=O)n3nc(-c4ccccc4)sc3n2)cc1C | 4.47* | 1.73 |
| O=c1c2ccccc2nc2n1CCN2Cc1ccccc1Br | -0.12 | 0.1 |
| O=S(=O)(NCc1ccc(-c2cccs2)s1)c1ccc(N2CCOCC2)nc1 | · | -1.7 |
| CC(NC(=O)C(=O)N1CCOCC1)C(c1cccs1)N1CCOCC1 (stereo not drawn) | 1.17 | -0.83 |
| CC(C)NC(=O)c1nn2c(C(F)(F)F)cc(-c3cccs3)nc2c1Br | 0.87 | -1.49 |
| O=C1CCC(=O)N1CCSCc1cccc(C(F)(F)F)c1 | · | -2.15 |
| O=C1OCc2ccc(NS(=O)(=O)c3cccc4nonc34)cc21 | · | -0.07 |
| COc1ccc(-c2[nH]nc3c2C(c2cccnc2)C(C#N)=C(N)O3)cc1 (stereo not drawn) | · | -2.4 |
